# miR-21 reporter = miR-21 reporter, rising signal; Potency, µM (top dose mostly 38.3 µM), without a hit: at the top dose reporter change, positive = more light; HeLa miR-21 FLuc reporter, luciferase, 48 h; 340,000 tested, under 10 active; active = well fitted rising curve with a large enough effect; inconclusive = small, poorly fitted or top-dose-only effect; inactive = no such curve, though single readings can be large or run the other way;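 also: % of control where 0% means no effect; miR-21 action dims this reporter so a rising signal means less miR-21 action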
#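 Luminescence from a firefly luciferase reporter carrying a miR-21 binding site downstream, stably expressed under a CMV promoter in HeLa cells that make miR-21 endogenously, reports miRNA modulation after 48 h compound exposure up to approximately 40uM final.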
# The depositor's hits bear a star; u = inconclusive; [ ] = another dose, or the depositor's remark.
miR-21 reporter	smiles
1%	CCc1nc2onc(C)c2c(=O)n1CC(=O)O
2%	O=C(CN1CCCN(Cc2cccc(F)c2)S1(=O)=O)Nc1ccc2c(c1)OCCO2
-1%	CC(=O)c1ccc(NC(=O)CSc2nc(C3CCCC3)nc3c2c(=O)n(C)c(=O)n3C)cc1
-1%	CCCCCOC(=O)CSc1ncnc2sc3c(c12)CCC(C)C3 (centres undefined)
26%	Cc1nn(-c2ccc(N3CCCCC3)nn2)c(C)c1CCC(=O)NCc1ccc(OC(C)C)cc1
-5%	CSc1ncc(C(=O)Nc2ccc(F)cc2F)c(-c2ccccc2)n1
0%	COc1ccccc1CNS(=O)(=O)c1cc(-c2cc(C)no2)ccc1C
-23%	CC(C)C(=O)OCc1cc(=O)n2nc(C3CC3)sc2n1
5%	Cc1ccc(Cc2nc3ccccc3nc2SCC(=O)N2CCC(C)CC2)cc1
7%	Cc1ccc(N(Cc2cccs2)C(=O)c2ccccc2Cl)cc1
0%	COC(=O)c1ccc(NC(=O)CCn2cnnn2)cc1
0%	CCC1CN(C(=O)N2CCC(C(=O)NCCOC)CC2)c2ccccc2O1 (centres undefined)
-1%	CCOc1ccc(CCNC(=O)CCc2c(C)nc3c4c(C)cc(C)nc4nn3c2C)cc1
-21%	Cc1nn(C)c2c1c(-c1ccccc1)cc(=O)n2CC(=O)Nc1ccccc1C(F)(F)F
-1%	CCOC(=O)c1[nH]c(C)c(CCC(=O)N2CCN(c3ccc(OC)cc3)CC2)c1C
-10%	O=C(CNC(=O)c1ccccc1F)OCc1cc(=O)n2nc(C3CC3)sc2n1
14%	COCCCNc1nc(NCc2ccccc2OC)c2cnn(C)c2n1
-1%	COc1ccc(Cl)cc1NC(=O)c1sc(-n2nc(C)c(Cc3ccccc3)c2C)nc1C
u	O=C(CCCn1c2ccccc2c(=O)c2ccccc21)Nc1cccc(Cl)c1
-10%	CCC(Sc1nnc2c(n1)[nH]c1ccccc12)C(=O)Nc1nnc(C(C)C)s1 (centres undefined)

# Arranged by value in miR-21 reporter (descending): some entries from above.
miR-21 reporter	smiles
26%	Cc1nn(-c2ccc(N3CCCCC3)nn2)c(C)c1CCC(=O)NCc1ccc(OC(C)C)cc1
-1%	CCCCCOC(=O)CSc1ncnc2sc3c(c12)CCC(C)C3 (centres undefined)
-10%	CCC(Sc1nnc2c(n1)[nH]c1ccccc12)C(=O)Nc1nnc(C(C)C)s1 (centres undefined)

# New compounds follow:
miR-21 reporter	smiles
u	CCS(=O)(=O)c1ccc(C(=O)N2CCN(c3nc4c(OC)ccc(C)c4s3)CC2)cc1
28%	CN(C(=O)C1CCCN(c2ncnc3c2nc2n3CCCCC2)C1)c1ccccc1F (centres undefined)
3%	Cc1ccc(C)c(NC(=O)CSc2nc(-c3ccccc3Cl)nc3c2Cc2c(CO)cnc(C)c2O3)c1
0%	CCOc1ccccc1NC(=O)Cn1c(=O)n(Cc2ccco2)c(=O)c2sc3ccccc3c21
-19%	COc1ccccc1CNC(=O)CN1C(=O)CCc2cc(S(=O)(=O)N3CCOCC3)ccc21
0%	Cc1cccc(OC(=O)c2nc(SCc3ccccc3F)ncc2Cl)c1
4%	CCCc1nn2c(=O)cc(COC(=O)c3ccco3)nc2s1
-7%	CCOc1ccc(C2C(=O)N(C3CCCCCC3)CC(=O)N2CCc2ccccc2)cc1OC (centres undefined)
3%	CCOc1ccc(CNC(=O)CCn2cccn2)cc1OC
22%	CCn1c(CN2CCCCC2)nc2cc(NC(=O)c3ccc([N+](=O)[O-])cc3)ccc21
-3%	CCOC(=O)c1ccccc1NC(=O)Cn1c(=O)n(CCCC(=O)NCc2ccc3c(c2)OCO3)c(=O)c2ccccc21
4%	Cc1ccc(NC(=O)Cn2c(=O)c3ccccc3n3nncc23)cc1
10%	COc1ccc(CCNC(=O)CSc2nnc(-c3ccc(C)cc3)c(-c3ccc(C)cc3)n2)cc1OC
-3%	COc1ccc(CNC(=O)c2cnc3ccc(C)cn3c2=O)cc1
-38%	CCOc1cc(CNC(=O)c2ccc(NC(=O)c3nsc4ccccc34)cc2)ccc1OC
2%	O=C(Cn1c(SCCOc2ccccc2Cl)nc2ccccc21)N1CCCCC1
-6%	O=C(Cn1c(=O)n2nc(-c3cccc(F)c3)nc2c2ccccc21)N1CCN(c2ccccc2F)CC1
0%	CCc1nnc2c(NCc3cccc(OC)c3)nc3ccccc3n12
-11%	O=C(COC(=O)c1cc(-c2cccs2)nc2ccccc12)c1ccc(F)cc1
-9%	Cn1cc(S(=O)(=O)c2ccccc2)c(=O)c2cc(F)c(N3CCCCCC3)cc21
21%	CC1CCN(S(=O)(=O)c2ccc3nc(NCc4ccccc4)ccc3c2)CC1
-75%	COc1ccc(Oc2ncnc3c2oc2ccccc23)cc1
-6%[7.66 µM]	COc1ccc([C@]23Cc4cc(C#N)ccc4C(O2)c2c(cc(C)n(-c4ccccc4)c2=O)O3)cc1
-4%	CCc1nc(SCC(=O)Nc2ccc(Br)cn2)n[nH]1
-61%	CC(=O)c1ccc(NC(=O)c2ncn(-c3ccccc3)n2)cc1
8%	COc1ccc(OC)c(S(=O)(=O)NCCS(=O)(=O)N2CCN(c3ccccc3F)CC2)c1
8%	O=C(CSc1oc(-c2ccccc2)nc1S(=O)(=O)c1ccc(Br)cc1)c1ccccc1
-9%	CC(C)c1ccc(NC(=O)Cc2ccc(NC(=O)N3CCCCc4ccccc43)cc2)cc1
1%	CCc1ccccc1NC(=O)CSc1nc(-c2cccc(Cl)c2)nc2c1Cc1c(CO)cnc(C)c1O2
5%	CC(=O)c1ccc(NS(=O)(=O)c2ccc(-c3cc(C)no3)s2)cc1
25%	CCCSc1ncc(Cl)c(C(=O)Nc2ccc(S(=O)(=O)N3CCCC(C)C3)cc2)n1 (centres undefined)
6%	O=C(Cn1c(SCC(=O)Nc2ccc(F)cc2)nc2ccccc21)NCc1ccc(Cl)cc1
2%	CCn1c(SCC(=O)Nc2cccc(Cl)c2)nnc1-c1nonc1NC(C)=O
8%	CCN(CC)C(=O)c1sc2c(c1C)c(=O)n(-c1ccc(OC)cc1OC)c(=O)n2Cc1cc(C)ccc1C
-6%	CN(C)c1ccc(C(CNS(=O)(=O)c2cc(F)ccc2F)N2CCOCC2)cc1 (centres undefined)
0%	O=C(CN1CCN(Cc2ccccc2F)C1=O)NCc1ccccc1
13%	O=C(Cn1c(=O)oc2cc(S(=O)(=O)NCc3ccccc3)ccc21)N(CCO)Cc1ccccc1
17%	COc1ccc(Cn2c(=O)n(-c3ccccc3C)c(=O)c3c4c(sc32)CN(C(C)=O)CC4)cc1
3%	CCN(C(=O)c1c(C)oc2ncnc(N3CCCCC3)c12)c1cc(C)ccc1C
-44%	COc1ccc(Cl)cc1NC(=O)c1cc2ccccn2n1

# Arranged by molecular weight (highest first): some entries from above.
miR-21 reporter	smiles
13%	O=C(Cn1c(=O)oc2cc(S(=O)(=O)NCc3ccccc3)ccc21)N(CCO)Cc1ccccc1
8%	COc1ccc(OC)c(S(=O)(=O)NCCS(=O)(=O)N2CCN(c3ccccc3F)CC2)c1
17%	COc1ccc(Cn2c(=O)n(-c3ccccc3C)c(=O)c3c4c(sc32)CN(C(C)=O)CC4)cc1
-6%[7.66 µM]	COc1ccc([C@]23Cc4cc(C#N)ccc4C(O2)c2c(cc(C)n(-c4ccccc4)c2=O)O3)cc1
3%	CCN(C(=O)c1c(C)oc2ncnc(N3CCCCC3)c12)c1cc(C)ccc1C
-4%	CCc1nc(SCC(=O)Nc2ccc(Br)cn2)n[nH]1
0%	O=C(CN1CCN(Cc2ccccc2F)C1=O)NCc1ccccc1

# Next part:
miR-21 reporter	smiles
-10%	Fc1ccc2c(c1)-c1c(cnc3cc(-c4ccc(Cl)cc4)nn13)CO2
3%	CC(C)(C)c1ccccc1NC(=O)c1cnn2c(C(F)F)cc(-c3ccccc3)nc12
-6%	Cc1cc(OCC(=O)Nc2ccc(-c3nc4cc(Cl)ccc4o3)cc2)cc(C)c1Cl
1%	CCOC(=O)c1c(C)oc2ncnc(Nc3cc(C)cc(C)c3)c12
12%	CC(C)Cn1c(C2CC(=O)N(c3ccccc3Cl)C2)nc2ccccc21 (centres undefined)
-12%	O=C(c1ccco1)n1nc(-c2ccccc2)nc1NCc1ccccc1Cl
-10%	CCN1CCN(c2ccc(S(=O)(=O)N3CCCCC3)cc2NC(=O)Cc2c(Cl)cccc2Cl)CC1
-15%	COc1ccc(Nc2c(-c3ccc(N4CCOCC4)cc3)nc3ncccn23)cc1OC
25%	Cc1ccc(Cn2c(CCCNC(=O)C3CCCCC3)nc3ccccc32)cc1
-2%	COCCNC(=O)CCCn1c(SCC(=O)NCc2ccc(C)cc2)nc2c(sc3ccccc32)c1=O
2%	CCC(=O)N1CCc2cc(CNS(=O)(=O)c3ccc(NC(=O)CC(C)C)cc3)ccc21
u	CCOC(=O)c1c(S(=O)(=O)NCC(=O)N2CCN(c3cc(C)ccc3C)CC2)c(C)n(C)c1C
-2%	Cc1cccc(NCc2nnc3n2CCCCC3)c1C
3%	COc1cccc(N2C(=O)N(Cc3ccc(C#N)cc3)c3ccccc3S2(=O)=O)c1
-1%	Cn1c(=O)[nH]c(=O)c2c1nc(CN1CCN(c3ccccc3)CC1)n2Cc1c(F)cccc1Cl
11%	COc1ccc(-n2ccnc2SCC(=O)Nc2ccc3c(c2)OCO3)cc1
-3%	COc1ccc(OCC(=O)N(Cc2cccc(OC)c2)C2CCS(=O)(=O)C2)cc1 (centres undefined)
-1%	CCc1cccc(C)c1NS(=O)(=O)c1cc(-c2cc(C)no2)ccc1C
-4%	CCOC(=O)c1cccc(NC(=O)c2cc3sccc3n2Cc2ccc(Cl)cc2)c1
0%	CCOc1ccc(NC(=O)c2c(Nc3ccc(OC)cc3OC)sc(C(=O)c3ccc(Cl)cc3)c2N)cc1
-35%	CN(C)c1ccc(-c2nc3ccc(Cl)cn3c2Nc2ccc3c(c2)OCCO3)cc1
-5%	Cc1cc(C)cc(NC(=O)C2CCCN(c3nnc(-n4c(C)ccc4C)s3)C2)c1 (centres undefined)
1%	COC(=O)c1ccc(-n2nnc(-c3nc(-c4ccc5c(c4)OCO5)no3)c2C)cc1
-5%	COc1ccc(Br)c2c1-c1nc(NC(=O)c3ccccc3SC)sc1C2
-1%	COc1cccc(/C=C(\C#N)C(=O)Nc2ccc(NC(C)=O)cc2)c1OC
1%	O=C(NCCc1ccccc1)c1cnc2sc(N3CCCCCC3)nn2c1=O
0%	CC(C)CCNC(=O)c1cn(C)c2ccc(S(=O)(=O)N3CCOCC3)cc2c1=O
25%	CCOC(=O)c1c(Nc2ccc(C)cc2)nnc(-c2ccccc2)c1-c1ccccc1
0%	O=S(=O)(c1ccccc1)c1nnn2c1nc(Nc1ccccc1)c1cc(Cl)ccc12
-1%	COc1ccc(-c2csc3nc(-c4ccc(Cl)cc4)oc(=O)c23)cc1
0%	CC(C)(C)C(=O)Nc1nnc2n1CCS2
-3%	CCOc1ccc(-c2c(C)nn3c(C)c(C(=O)Nc4cccc(Cl)c4C)cnc23)cc1OCC
6%	CC1=C(c2ccc(C(C)C)cc2)S(=O)(=O)N=C1N1CCC(C(=O)Nc2ccc(C)cc2)CC1
-1%	CCCC(=O)Nc1nnc(SCc2cc(=O)n3ccccc3n2)s1
-5%	Cc1ccc(Cn2c(=O)c3c(nc4n3CCN4c3cc(C)cc(C)c3)n(C)c2=O)cc1
3%	COc1ccc(C(=O)COC(=O)CCCC(=O)Nc2cc(C(F)(F)F)ccc2Cl)cc1
17%	Cc1ccc(Nc2c(-c3ccsc3)nc3cccc(C)n23)cc1
1%	COC(=O)c1ccc(NC(=O)CN2C(=O)CC(c3ccccc3)Sc3ccccc32)cc1 (centres undefined)
-43%	CCC(=O)N1CCN(c2nc3c(C)cccc3s2)CC1
-10%	CCOc1ccc2nc(N3CCCC(C(=O)Nc4cc(Cl)c(OC)cc4OC)C3)sc2c1 (centres undefined)
1%	COc1cc(NC(=O)c2cc3c(=O)oc4ccc(C)cc4c3s2)cc(OC)c1OC
-8%	CCN(CC)CCN(C(=O)c1ccco1)c1nc2cc(C)cc(C)c2s1
-3%	Cc1ccc(NC(=O)CN2C(=O)CCc3cc(S(=O)(=O)N4CCOCC4)ccc32)cc1N(C)C
-2%	COc1cccc(CNS(=O)(=O)c2cc3[nH]c(=O)c(=O)[nH]c3cc2C)c1
-15%	CC1CCN(C(=O)c2cc3c(=O)n(C)c4ccccc4c3s2)CC1
-1%	COc1ccc(-c2csc(-c3c(N)c(C(=O)c4ccc(OC)c(OC)c4)n4ccccc34)n2)cc1
-9%	CCc1nc2ccccc2n2c(-c3ccc(C)cc3)c3c(=O)n(C)c(=O)n(C)c3c12
4%	Cc1cc(C)n(-c2nc3ccccc3nc2Nc2ccc(Cl)c(C(=O)OC(C)C)c2)n1
-12%	Cc1ccc(OCCCSc2nc(-c3ccc(C(C)(C)C)cc3)nc3cc(=O)[nH]n23)cc1C
-81%	Nc1c(-c2nc(-c3ccccc3Cl)no2)nnn1-c1ccccc1F
27%	CCOc1ccc(C2=C(C(C)=O)Sc3nnc(C)n3N2C(C)=O)cc1
-5%	Cc1ccc(OCC(=O)OCc2cc(=O)n3nc(-c4cccs4)sc3n2)cc1C
u	CN1C(=O)c2ccccc2Sc2ccc(NC(=O)COc3ccc(Cl)cc3)cc21
19%	COC(=O)CN1C(C(=O)c2ccccc2)=C(OC(=O)c2ccc(C)cc2)c2ccccc2S1(=O)=O
3%	CC(C)C(NS(=O)(=O)c1ccc2c(c1)oc(=O)n2C)C(=O)NCCc1ccccc1 (centres undefined)
-18%	Cc1ccc(Nc2nc(Nc3ccc(C)c(C)c3)nc(N3CCOCC3)n2)cc1C
-2%	O=C(Nc1ccc(S(=O)(=O)Nc2ccccc2)cc1)N1CCCC1
-1%	O=C(NCc1ccco1)c1ccc(Cn2c(SCc3ccc(F)cc3)nc3cccnc32)cc1
0%	COc1ccc(-c2onc(C)c2C)cc1S(=O)(=O)NCC1CCN(Cc2ccccc2F)CC1

# Screening results as filed in PubChem.

# An excerpt. The share of hits here may be higher or lower than overall.
